# Screening results: PubChem BioAssay, several laboratories
# Mtb betalactam: beta-lactam sensitization of Mtb H37Rv, H37Rv; inhibition, % at 25 µM; M. tuberculosis H37Rv growth with meropenem, percent inhibition; hits of this screen are not shown here; 330,000 tested, 0.27% active;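 active = about 74% or more and at least 40 points above the plate without the antibiotic, then above 30% in a dose series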;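 also: growth measured after seven days incubation then overnight dye step; 0% = bacteria only wells and 100% = bacteria with antibiotic; twin plates without the antibiotic show which effects depend on it; some results filed as inactive read as strong as hits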
# RecA intein inh: Mtb RecA intein splicing inhibitors, primary screen, biochemical, fluorescence, HTS; Protein RecA (Mycobacterium tuberculosis (strain ATCC 25618 / H37Rv)), P9WHJ3; cell-free RecA intein splicing; inhibition, %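 (about 9 µM by stock and volumes)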; 290,000 tested, 0.75% active; AID 2221, 2009; in the data active = inhibition above about 30%;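 also: 0% = vehicle wells and 100% = reference inhibitor control wells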
# Target sequence (P9WHJ3 whole entry, looked up): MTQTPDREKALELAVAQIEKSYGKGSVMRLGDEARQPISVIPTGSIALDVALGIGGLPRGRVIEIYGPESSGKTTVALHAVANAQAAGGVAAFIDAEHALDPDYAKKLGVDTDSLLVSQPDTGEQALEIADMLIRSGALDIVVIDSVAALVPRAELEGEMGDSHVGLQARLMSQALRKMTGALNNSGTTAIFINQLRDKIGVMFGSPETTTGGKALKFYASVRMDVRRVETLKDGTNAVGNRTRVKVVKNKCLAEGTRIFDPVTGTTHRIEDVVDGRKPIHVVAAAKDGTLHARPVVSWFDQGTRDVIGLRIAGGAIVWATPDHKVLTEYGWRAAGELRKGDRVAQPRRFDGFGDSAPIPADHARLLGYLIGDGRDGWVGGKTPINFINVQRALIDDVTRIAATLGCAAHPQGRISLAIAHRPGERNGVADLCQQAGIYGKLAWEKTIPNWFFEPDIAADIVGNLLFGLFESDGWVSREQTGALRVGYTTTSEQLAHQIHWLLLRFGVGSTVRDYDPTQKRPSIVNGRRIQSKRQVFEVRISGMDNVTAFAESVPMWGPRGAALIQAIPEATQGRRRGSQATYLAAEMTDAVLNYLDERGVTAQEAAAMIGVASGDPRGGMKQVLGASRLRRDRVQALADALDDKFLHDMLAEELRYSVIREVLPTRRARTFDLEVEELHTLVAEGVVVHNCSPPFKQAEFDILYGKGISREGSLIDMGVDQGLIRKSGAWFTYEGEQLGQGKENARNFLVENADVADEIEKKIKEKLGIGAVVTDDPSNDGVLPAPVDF
# YopH inh: YopH tyrosine phosphatase inhibitors, primary screen, biochemical, fluorescence Ex485/Em525. YopH tyrosine phosphatase [Yersinia enterocolitica]. inhibition, %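 (about 10 µM by stock and volumes)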. 140,000 tested, 0.16% active. AID 898, 2007;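 active = inhibition of 50% or more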;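 also: controls were vehicle for no effect and minimum signal wells for full effect; inactives centre near -20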
# Mtb H37Rv: M. tuberculosis H37Rv growth inhibitors, H37Rv strain (AID 1626). 220,000 tested, 0.95% active. one-dose inhibition, % at 10 µM; IC50 in µM for titrated hits. M. tuberculosis H37Rv growth inhibition; higher % means a stronger effect;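 active = confirmed in a dose series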;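 also: bacteria incubated seven days before Alamar blue readout; 0% = bacteria only wells and 100% = bacteria with antibiotic wells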
# Arbovirus anti: antivirals against arbovirus infection, primary screen, cell-based, full library, 10K replicate subset. arbovirus infection cell-based antiviral screen. inhibition, % at 10 µM. 200,000 tested, 0.37% active;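 active = inhibition from about 30%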;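 also: bluetongue infection of BSR cells; cell survival read as ATP light after 72 h; 0% = infected wells without compound and 100% = uninfected wells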
# Arbovirus anti repeat: also measured in Arbovirus anti; calls as there; inhibition, %; measured here: 10K subset replicate screen; many hits read low in the repeat;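 first of two repeat runs on a subset; 0% = infected and 100% = uninfected wells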
# * hit, by the source's call; x = not tested or not shown.
SMILES,Mtb betalactam,RecA intein inh,YopH inh,Mtb H37Rv,Arbovirus anti,others
CCCCCCCOC(=O)c1nc(Cl)c(Cl)c(N)c1Cl,6,8.2,-19,4%,-5,
Cc1ccc(NC(=O)c2cc(N3C(=O)CCC3=O)ccc2N2CCCCC2)cc1,1,-1.8,x,-2%,0,
COc1cc(Nc2cc(C)nc3ncnn23)cc(OC)c1,-5,1.2,-21,5%,-10,
CCNC(=O)/C(C#N)=C/c1c(N2CCN(c3ccccc3)CC2)nc2ccccn2c1=O,1,-62,x,x,x,
CCCN(CC(=O)Nc1ccccc1OC)Cc1c(O)ccc2ccccc12,-1,-3.7,x,x,x,
CCOc1ccc(C(=O)Nc2ccc(N3CCN(C)CC3)cc2)cc1[N+](=O)[O-],-1,-1.6,x,-2%,0,
COc1cccc(OC)c1C(=O)N1CCOCC1,-17,-2.2,-2,-8%,-1,
O/N=C/c1nc2cc(Cl)ccc2o1,0,3.9,x,7%,6,
O=C(NC1CCCCC1)C1CCC(=O)N(C2CC2)C1 (centres undefined),-12,1.9,x,x,x,
O=C(O)c1cc(-c2ccc(O)cc2)on1,0,-1.8,x,-5%,-3,
O=C(Cn1nnc2ccccc21)c1cccc([N+](=O)[O-])c1,-4,2.6,-28,-8%,0,
COc1ccc(CCCC(=O)Nc2ccccc2F)cc1,5,9.9,-35,-8%,-2,

# Next part, starting with the last two of the part before.
SMILES,Mtb betalactam,RecA intein inh,YopH inh,Mtb H37Rv,Arbovirus anti,others
O=C(Cn1nnc2ccccc21)c1cccc([N+](=O)[O-])c1,-4,2.6,-28,-8%,0,
COc1ccc(CCCC(=O)Nc2ccccc2F)cc1,5,9.9,-35,-8%,-2,
O=C(O)c1cn(-c2ccc(F)cc2)c2cc(Cl)c(F)cc2c1=O,57,0.1,x,x,x,
Cc1c(NS(=O)(=O)c2ccc(N)cc2)c(=O)n(-c2ccccc2)n1C,2,-2.0,x,x,x,
CCCC(=O)n1nc(-c2cccnc2)nc1NCc1cccs1,x,1.9,x,7%,3,
Cc1ccc(S(=O)(=O)CCC(=O)NCc2ccc(Cl)cc2)cc1,0,-4.1,-21,-2%,-2,
COCCNC(=O)CSC1=N/C(=C/c2ccc(Cl)c(Cl)c2)C(=O)N1c1ccccc1F,23,-2.3,4,5%,18,
CCCCc1ccc(-c2ccc(Br)cc2O)nc1,9,2.0,2,-4%,9,
O=C(Nc1ccccc1)c1cccc(N2CCCC2=O)c1,1,-0.1,-3,-3%,0,
O=C(C1CCC(C(=O)N2CCCCC2)CC1)N1CCCCC1 (centres undefined),-4,0.8,-13,5%,6,
N#Cc1nc(-c2ccc(F)cc2)oc1NCc1cccc2c1OCO2,0,-0.2,-30,6%,5,
CCOc1ccc(CN2CCN(Cc3cccn3-c3ncccn3)CC2CCO)cc1 (centres undefined),-4,-18,x,1%,-3,
NC(=O)c1ccccc1NS(=O)(=O)c1ccc(F)cc1,-4,2.0,x,-2%,-4,
CCN1CCCC1CN(Cc1cc2cc(C)ccc2[nH]c1=O)C(=O)Nc1ccccc1OC (centres undefined),14,1.4,-43,-5%,4,
Cc1ccc(C)c(/C=C2\CCn3c2nc2cc(C(=O)O)ccc2c3=O)c1,0,1.9,x,x,x,
Cc1cccnc1NC1CCCCC1,-6,1.4,x,3%,2,
Cn1c(=O)n(C)c2cc(S(=O)(=O)N3CCOCC3)ccc21,-7,-0.2,10,0%,-3,
CCOC(=O)c1c(C)c2c(n1C)CCC/C2=N\O,0,x,-28,-1%,6,
Cc1ccccc1NC(=O)c1cccc(C(=O)Nc2ccccc2C)n1,-12,-0.1,x,x,x,
Cc1cc(OCC(=O)NNC(=S)NCC2CCCO2)cc(C)c1Cl (centres undefined),-5,3.6,x,x,x,
c1ccc(Cn2c(Nn3cnnc3)nc3ccccc32)cc1,0,-2.6,8,-2%,3,
O=C(c1ccco1)N1CCN(C(=O)C2CC(c3ccc(Cl)cc3)=NO2)CC1 (centres undefined),96,-0.5,-1,-3%,3,
N#CC(C(=O)OC1CCCCC1)c1nc2ccccc2nc1N1CCOCC1 (centres undefined),-10,-3.3,-39,-3%,-7,
COc1ccccc1C(=O)OC1CCCN(C)C1 (centres undefined),-1,0.0,x,x,x,
COc1nc(-c2ccccc2)c2cc(C)ccc2n1,5,1.5,x,x,x,
Cc1cc(C)c(C(=O)Nc2ccc(Br)c(C(F)(F)F)c2)c(C)c1,98,0.4,-26,51%,-29,
COc1ccc(C(=O)N/C(=C\c2cc(OC)c(OC)cc2[N+](=O)[O-])C(=O)NCCO)cc1,2,-3.5,x,-12%,-2,
O=[N+]([O-])c1cc2c(cc1/C=N/n1cnnc1)OCO2,5,-3.5,x,11%,-4,
Cc1noc(C)c1S(=O)(=O)N1CCCC(C(=O)Nc2cccnc2)C1 (centres undefined),-9,0.7,-22,-4%,5,
O=C(O/N=C1\CCCc2ccccc21)C1CC1,49,0.9,x,-2%,1,
O=C(COC(=O)/C=C/c1ccc(S(=O)(=O)N2CCOCC2)cc1)NCc1ccc(Cl)cc1,-6,2.0,x,3%,-10,
CC(=O)N1CCc2cc(Br)cc(S(=O)(=O)NCCN3CCCCC3C)c21 (centres undefined),0,0.0,-34,-8%,7,
Cc1cccc(N2C(=O)c3ccc(C(=O)Nc4ccccn4)cc3C2=O)c1,1,0.0,x,x,x,
CCCCN(C(=O)/C=C/c1ccco1)c1c(N)n(CC(C)C)c(=O)[nH]c1=O,1,1.5,x,-4%,-2,
CCOc1ccc(NC(=S)N(CCN2CCOCC2)Cc2cc3cc4c(cc3[nH]c2=O)OCCO4)cc1,3,2.6,x,20%,-2,
C=CCN(CC=C)CC(O)CN(c1cc([N+](=O)[O-])ccc1OC)S(=O)(=O)c1ccccc1 (centres undefined),4,0.5,-45,6%,-4,
Cc1cccc(NC(=O)C2CCN(S(=O)(=O)c3cccc4cccnc34)CC2)c1,1,-2.3,-47,3%,3,Arbovirus anti repeat=0
CCOc1ccccc1CN1CCNC(=O)C1CC(=O)N(C)CCc1ccccn1 (centres undefined),7,-1.6,x,x,x,
Nc1nc(Nc2ccccc2)n[nH]1,-10,-5.1,x,-5%,x,
COc1ccc(-c2noc(CN(C(=O)c3ccc(OC(C)=O)cc3)C(C)C)n2)cc1OC,-4,8.4,-29,-6%,3,
Cc1ccc(CN2CCN(Cc3cn[nH]c3-c3cccc(F)c3)CC2CCO)o1 (centres undefined),6,2.2,x,7%,4,
CCCN(CC1COc2ccccc2O1)C(=S)Nc1ccc(C)cc1 (centres undefined),7,4.5,2,3%,14,
O=C(Nc1ccccc1C(F)(F)F)c1cc(S(=O)(=O)N2CCOCC2)ccc1F,-4,-0.4,-15,1%,3,
CC(=O)OCC(=O)[C@H]1CC[C@H]2[C@@H]3CCC4=CC(=O)CC[C@]4(C)[C@H]3CC[C@]12C,3,1.1,-29,1%,6,
CC(NC(=O)COC(=O)C1CCC1)c1ccccc1 (centres undefined),-5,-0.9,x,x,x,
CC(C)(C)c1ccc(-c2nnc3sc(-c4ccncc4)nn23)cc1,x,x,-20,44%,27,
Nc1ccccc1Nc1nc2ccccc2[nH]1,9,0.9,x,x,x,
Cc1ccccc1NC(=S)NC(NC(=O)c1ccco1)C(Cl)(Cl)Cl (centres undefined),-12,3.8,-32,8%,5,
O=C(Nc1cc([N+](=O)[O-])ccc1F)c1cccs1,-2,-4.6,-22,2%,1,
COc1ccc(Cl)cc1N(C)C(=O)CCc1nc(-c2ccc(C)cc2)no1,-7,15,-23,11%,-6,
Cc1cnccc1CNC(=O)C1CCC(=O)N(Cc2ccc(Cl)cc2)C1 (centres undefined),2,1.3,x,x,x,
CCSc1nnc(NC(=O)CSc2nnc(Cc3cccn3C)n2-c2ccc(F)cc2)s1,x,0.2,-20,x,33*,
COc1ccc(-n2c(O)c(C=Nc3ccccc3)c3ccccc3c2=O)cc1,-1,-2.4,x,-8%,-17,
CC(C)CN(C(=O)CN1CCN(S(=O)(=O)c2ccc3ccccc3c2)CC1)c1c(N)n(CC(C)C)c(=O)[nH]c1=O,1,2.8,-16,4%,3,
COc1ccccc1C(=O)OCC(=O)Nc1ccccc1OC(F)F,-2,1.3,x,-3%,x,
COc1ccc(NC(=O)C(c2ccc(OC)cc2)N(Cc2ccco2)C(=O)CC2NC(=O)NC2=O)cc1 (centres undefined),-1,2.0,x,6%,3,
Cc1ccc2c(c1)N(C(=O)CCC(=O)N1CCC3(CC1)OCCO3)CC(C)O2 (centres undefined),-1,-1.6,x,x,x,
CC(=O)Nc1ccc(NC(=O)CSc2nnc3ccc(-c4cccnc4)nn23)cc1,-4,1.3,x,x,x,

# Entries listed so far that contain a Cl atom (11):
SMILES,Mtb betalactam,RecA intein inh,YopH inh,Mtb H37Rv,Arbovirus anti,others
CCCCCCCOC(=O)c1nc(Cl)c(Cl)c(N)c1Cl,6,8.2,-19,4%,-5,
O/N=C/c1nc2cc(Cl)ccc2o1,0,3.9,x,7%,6,
O=C(O)c1cn(-c2ccc(F)cc2)c2cc(Cl)c(F)cc2c1=O,57,0.1,x,x,x,
Cc1ccc(S(=O)(=O)CCC(=O)NCc2ccc(Cl)cc2)cc1,0,-4.1,-21,-2%,-2,
COCCNC(=O)CSC1=N/C(=C/c2ccc(Cl)c(Cl)c2)C(=O)N1c1ccccc1F,23,-2.3,4,5%,18,
Cc1cc(OCC(=O)NNC(=S)NCC2CCCO2)cc(C)c1Cl (centres undefined),-5,3.6,x,x,x,
O=C(c1ccco1)N1CCN(C(=O)C2CC(c3ccc(Cl)cc3)=NO2)CC1 (centres undefined),96,-0.5,-1,-3%,3,
O=C(COC(=O)/C=C/c1ccc(S(=O)(=O)N2CCOCC2)cc1)NCc1ccc(Cl)cc1,-6,2.0,x,3%,-10,
Cc1ccccc1NC(=S)NC(NC(=O)c1ccco1)C(Cl)(Cl)Cl (centres undefined),-12,3.8,-32,8%,5,
COc1ccc(Cl)cc1N(C)C(=O)CCc1nc(-c2ccc(C)cc2)no1,-7,15,-23,11%,-6,
Cc1cnccc1CNC(=O)C1CCC(=O)N(Cc2ccc(Cl)cc2)C1 (centres undefined),2,1.3,x,x,x,

# A portion of the library; rates above refer to the full screens.
